Screening results as filed in PubChem BioAssay.
CSC inhib – cancer stem cell inhibition; hit rate 1.1% among 300,000; cancer stem cell-like cells viability, luminescence; AID 2717; inhibition, % at 7.5 µM;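 active = mean at 75% or more and at least half the replicates too; tested in HMLE shEcad cells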;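 also: 0% = median of negative and 100% = median of positive control wells; the first replicate is given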
MT1-MMP act inh – inhibitors of human MT1-MMP activation; GFP/RFP ratio change, % at 20 µM; hit rate 0.061% among 360,000; HT1080 RFP-PRO-GFP cells, GFP/RFP ratio fluorescence, overnight; percent of plate control window, DMSO zero;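 active = GFP/RFP ratio change of at least 30% with cell ATP level not reduced by more than half and red fluorescence within 50% of control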; also: strong numbers were not always called active
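Material: RFP-PRO-GFP reporter HT1080 cells. Dosing: single-point 20 µM compound, 1% DMSO. Controls: DMSO and RFP-L50D-GFP cell wells. Timing: cells overnight before dosing, compound overnight, 37 °C, 5% CO2. Measure: GFP/RFP fluorescence ratio.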
PABP polyA inh – PABP-poly(A) binding inhibition. P11940. PABP-poly(A) RNA binding, fluorescence polarization. inhibition, % at 35 µM. hit rate 1% among 290,000. AID 2014;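 active = 50% or more with normal probe brightness, or confirmed in later tests; about a fifth of its hits are not listed in these tables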;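 also: calls also rest on retests at 20 µM and on dose response follow-up; controls were probe without protein and protein plus probe with vehicle; some compounds called inactive have numbers as strong as hits; many hits fall short of the cut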
Env fusion inh – HIV envelope-mediated fusion inhibition | HeLa-JRFL Env/CEM21 cell fusion, luciferase | inhibition, % at 12.3 µM | hit rate 1.1% among 360,000 | AID 651610;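 active = mean replicate inhibition score of at least 50 and every replicate individually at or above 50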;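 also: 0% = plate neutral controls and 100% = maraviroc near 300 nM; one replicate is shown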
Rce1 inh – blocks yeast Ras-converting enzyme; Q03530; yeast membranes, quenched prenylated peptide cleavage fluorescence; calls only; hit rate 0.27% among 290,000; AID 2563;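 active = fall in fluorescence gain of 50% or more versus controls, with final raw signal at or below 3038400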;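 also: plate controls were neutral control wells for no effect and wells lacking membranes for full effect; tested at 10 µM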
Target sequence (Q03530 whole entry, looked up): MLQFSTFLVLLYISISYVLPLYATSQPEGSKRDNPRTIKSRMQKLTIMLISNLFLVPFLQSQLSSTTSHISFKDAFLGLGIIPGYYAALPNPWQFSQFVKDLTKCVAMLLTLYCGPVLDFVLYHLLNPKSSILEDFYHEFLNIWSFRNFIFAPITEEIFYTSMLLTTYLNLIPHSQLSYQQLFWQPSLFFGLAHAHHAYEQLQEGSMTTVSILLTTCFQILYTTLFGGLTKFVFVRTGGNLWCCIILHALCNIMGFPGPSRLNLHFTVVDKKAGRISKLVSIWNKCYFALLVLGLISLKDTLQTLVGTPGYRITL
eIF4H FP inh – inhibitors of RNA binding by human eIF4H; eIF4H fluorescence polarization binding assay; inhibition, % at 35 µM; hit rate 0.94% among 290,000;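 active = 50% or more with normal probe brightness, or confirmed in later tests; about a fifth of its hits are not listed in these tables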;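 also: calls also rest on retests at 20 µM and on dose response follow-up; 0% = protein and probe with vehicle and 100% = probe without protein; strong numbers were not always called active; many hits fall short of the cut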
Yeast UUG start – yeast start codon fidelity modulation | S. cerevisiae UUG-firefly luciferase reporter, luminescence/redox ratio | activity score, % at 18.7 µM | hit rate 0.13% among 350,000;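 active = replicate mean at a twofold rise or more, about +100% in these data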;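 also: firefly luciferase made from a UUG start codon reports start codon fidelity; reporter light over untreated wells divided by growth signal over untreated wells; some hits fall short of that in this replicate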
MT1-MMP act inh RFP – recorded beside MT1-MMP act inh, whose call it bears; RFP signal change, %; measured here: RFP expression control read;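 0 = vehicle wells; hits needed this value within 50% of zero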
* hit, by the source's call; i = inactive; . = not tested or not shown.

SMILES | CSC inhib | MT1-MMP act inh | MT1-MMP act inh RFP | PABP polyA inh | Env fusion inh | Rce1 inh | eIF4H FP inh | Yeast UUG start
Cn1c(=O)c(=O)n(C)c2cc(S(=O)(=O)NCCN3CCN(c4ccccc4F)CC3)ccc21 | -11 | 3 | 2 | -10 | 17 | i | -2 | .
O=C(CSc1nc2nc(-c3cccs3)cc(C(F)(F)F)c2c(=O)[nH]1)Nc1c(F)c(F)c(F)c(F)c1F | 88* | -9 | -36 | 0 | 34 | i | -9 | -19
COc1ccc(C(=O)C(C)OC(=O)CNC(=O)c2ccco2)cc1 (stereo not drawn) | 10 | -5 | -3 | . | . | . | . | -8
COC(=O)CNC(=O)c1cccc(Cl)c1 | -10 | -1 | 0 | -5 | -20 | i | 4 | .
Cc1ccc(CN2CCC(C(=O)NCCC(C)C)CC2)o1 | 5 | 0 | 2 | 10 | . | i | 15 | -34
CN1CCN(S(=O)(=O)c2ccc(NC(=O)c3ccccc3F)cc2)CC1 | -22 | 3 | 1 | 3 | -6 | i | -13 | -26
CC1CN(S(=O)(=O)N2CCOCC2)CCN1S(=O)(=O)N1CCOCC1 (stereo not drawn) | -5 | -6 | -6 | -4 | 5 | i | 4 | -12
O=C(c1ccccc1)C1CCN(C(=O)C2CCC(=O)N(Cc3ccccc3F)C2)CC1 (stereo not drawn) | 8 | -1 | -12 | 0 | -14 | i | -6 | -8
COc1cccc(OCCOc2ccc(/C=C3/SC(=S)NC3=O)cc2)c1 | 53 | -6 | -3 | -5 | 29 | i | 15 | .
CC(=O)c1c(C)n([O-])c2ccc(C)cc2[n+]1=O | -11 | -3 | 2 | 0 | -143 | i | 2 | -15
Cc1[nH]n(-c2ccc(F)cc2)c(=O)c1/C=N/c1sc2c(c1C#N)CCCC2 | -8 | 3 | 6 | 19 | . | i | 9 | .
CN1C=C/C(=C\c2cc[n+](C)c3ccccc23)c2ccccc21 | . | 15 | -12 | 5 | 46 | i | 8 | 33
Nc1ccc2c(c1)Nc1ccccc1CC2 | -6 | 2 | 4 | 6 | -9 | i | 12 | .
CC(OC(=O)c1cccc(O)c1)C(=O)N(C)Cc1ccccc1 (stereo not drawn) | . | 1 | -4 | . | . | i | . | -1
O=C(CC1C(=O)NCCN1Cc1ccc(F)cc1Cl)NC1CCCCCCC1 (stereo not drawn) | -4 | -1 | 2 | 4 | -5 | i | -9 | 5
COc1cc(CN2CCC(n3nccc3NC(=O)c3ccc4c(c3)OCO4)CC2)ccc1O | -4 | 1 | 7 | 6 | -9 | i | -6 | -16
NC(=O)Cn1c(=O)n(-c2ccccc2)c(=O)c2oc3ccccc3c21 | -3 | -3 | -4 | 1 | 3 | i | -4 | .
CC(/C=N/NC(=S)Nc1cccc(S(=O)(=O)N(C)C)c1)c1ccccc1 (stereo not drawn) | -4 | -1 | 2 | 0 | -12 | i | 0 | 0
CCOC(=O)C1(CCOc2ccccc2)CCN(Cc2ccc3c(c2)OCCO3)CC1 | 30 | -6 | -8 | -5 | 23 | i | -8 | .
O=C(Cn1cc(COc2cc(F)cc(F)c2)nn1)c1ccc(O)cc1 | . | 3 | 2 | . | 0 | . | . | -17
C=Cn1cc[n+](CC(=O)c2cccs2)c1 | -8 | -1 | 6 | -6 | 5 | i | -4 | -8
CC[C@H](NC(=O)/C=C/[C@H]1O[C@@H](n2cc(C)c(=O)[nH]c2=O)C[C@@H]1O)c1ccccc1 | . | -117 | -76 | . | -4 | . | . | -5
CCOc1ccccc1NC(=O)CSc1nnnn1C1CCCC1 | -8 | 2 | 3 | 11 | -1 | i | -4 | -7
Cc1cccc(NC(=S)N(C)C2(c3ccccc3Cl)CCCCC2=O)c1 (stereo not drawn) | . | -7 | -4 | 0 | 14 | i | -5 | -23
COc1ccc(-c2c(=O)n(OCc3nc4ccccc4[nH]3)c3ccccc3[n+]2[O-])cc1 | -18 | -8 | -3 | 7 | 2 | i | -6 | .

Remaining list, next part:
SMILES | CSC inhib | MT1-MMP act inh | MT1-MMP act inh RFP | PABP polyA inh | Env fusion inh | Rce1 inh | eIF4H FP inh | Yeast UUG start
COc1cc2c(cc1OC)CN(C(=O)CSc1ccc(F)cc1)CC2 | -12 | 1 | -6 | . | . | . | . | 12
O=C(O)c1ccccc1C(=O)Nc1ccccc1 | -2 | 3 | 1 | 1 | -17 | i | 0 | -12
COc1cc2c(cc1OC)C(C(=O)N1CCN(c3ccccc3)CC1)C(c1cccs1)N(C)C2=O (stereo not drawn) | -4 | 2 | 5 | 0 | -42 | . | -1 | 6
CCNC(=O)C1(C)CCN(C(=O)c2ccc(F)c(Cl)c2)C1 (stereo not drawn) | . | 0 | 2 | . | -7 | . | . | -13
O=C(Cc1cccc2ccccc12)Nc1cc(Cl)ccc1C(=O)O | 1 | 2 | -1 | 14 | 24 | i | 1 | -15
COc1ccc(/C=C(/CC(=O)Nc2ccccc2)c2nc3ccccc3s2)cc1 | -11 | -5 | -8 | 12 | -18 | i | 4 | .
O=C(NNS(=O)(=O)Cc1ccccc1)c1ccc([N+](=O)[O-])cc1 | 20 | -1 | 4 | 4 | -39 | i | -11 | -15
CC(C)C(NC(=O)c1ccccc1F)C(=O)NCCCn1ccnc1 (stereo not drawn) | -3 | -1 | 0 | . | . | . | . | 7
O=C(Nc1cccc(Cl)c1)NC1CCCCC1 | -10 | 0 | -2 | -4 | -92 | i | 0 | .
CCCCOc1ccc(C2CC(=O)NC2=O)cc1 (stereo not drawn) | -12 | 2 | 1 | 13 | -59 | i | 4 | -14
O=C(CSc1nc(-c2ccccc2)c(-c2ccccc2)o1)N1CCOCC1 | -13 | -6 | -8 | 3 | . | i | 3 | 111*
CCOC(=O)Cc1csc(NC(=O)c2ccncc2)n1 | -2 | 5 | -6 | -1 | -38 | i | -2 | -25
CCCCN(CC)C(=O)/C=C/c1cccc([N+](=O)[O-])c1 | -7 | -3 | 3 | 4 | . | i | -9 | -13
COc1ccc(NC(=O)C2CCCN(S(=O)(=O)c3ccc4c(c3)oc(=O)n4C)C2)c(OC)c1 (stereo not drawn) | -3 | 1 | -1 | 1 | -8 | i | -4 | -14
Clc1ccc(N2COC3c4cccc5cccc(c45)C32)cc1 (stereo not drawn) | 11 | -2 | -1 | 2 | 19 | . | -7 | 4
Cc1ccc(CN(C(=O)c2csnn2)C(C(=O)NC2CCCC2)c2ccc(C)o2)cc1 (stereo not drawn) | -10 | 3 | -5 | -2 | -174 | i | -6 | .
S=c1[nH]c(-c2ccccc2)cn1/N=C/c1ccccc1Br | 23 | -1 | 2 | 2 | -46 | i | -7 | -14
COC(=O)CC(C(=O)Nc1cc(C(=O)OC)cc(C(=O)OC)c1)N1CCN(C)CC1 (stereo not drawn) | -18 | 1 | 4 | . | -47 | i | . | .
Nc1nc(C23CC4CC(CC(C4)C2)C3)cs1 | 9 | -1 | -4 | 10 | . | i | -5 | -51
CCc1cccc(C)c1NC(=O)C1CCN(c2nn3c(=O)cc(C)nc3s2)CC1 | 0 | -1 | 2 | 19 | -11 | i | 3 | .
Cc1ccc(S(=O)(=O)N(CC(=O)N2CCCC2)C2CCCCC2)cc1 | -1 | -5 | 1 | -8 | . | i | 2 | -27
Cc1cc(C)c(C(O)c2ncc(-c3ccccc3Cl)[nH]2)c(C)c1 (stereo not drawn) | . | 0 | 0 | . | -7 | . | . | -29
Cc1ccc(-c2ccc(CCC(=O)O)n2-c2cccc(C(=O)O)c2)cc1 | 3 | -3 | 1 | -1 | -29 | i | -2 | -5
Cc1ccc2nc(-c3ccc(O)cc3)c(Nc3ccc4c(c3)OCCO4)n2c1 | 12 | 6 | 4 | -11 | 11 | i | 0 | -39
CCC(C)NC(=O)CN(C1CCCCC1)S(C)(=O)=O (stereo not drawn) | -3 | 7 | 4 | -4 | -7 | i | 4 | -18

(next part)
SMILES | CSC inhib | MT1-MMP act inh | MT1-MMP act inh RFP | PABP polyA inh | Env fusion inh | Rce1 inh | eIF4H FP inh | Yeast UUG start
CC(C)[C@H](NC(=O)OCc1ccccc1)C(=O)N[C@@H](Cc1c[nH]c2ccccc12)C(=O)O | -14 | 0 | 2 | . | -2 | i | . | 12
COC(=O)C(Cc1cnc(Cl)s1)(C(=O)OC)c1ccc([N+](=O)[O-])cc1 | -2 | -4 | 5 | -4 | -29 | i | -4 | -3
CCOc1ccc(N2CC(C(=O)NC3=NCCS3)CC2=O)cc1 (stereo not drawn) | -1 | 0 | 1 | -3 | -5 | i | -6 | -9
COc1ccc(NC(=O)NNS(=O)(=O)c2cc(C)ccc2C)cc1OC | -3 | 1 | 1 | -2 | -8 | i | -8 | -5
Cn1c(-c2ccc3c(c2)OCO3)cnc1NC(=O)CCC(=O)NCCc1ccccc1 | -11 | 3 | 1 | -8 | -83 | . | -5 | -10
COc1cc2c(C(=O)Nc3ccc4c(c3)OCO4)cn(CC(C)C)c(=O)c2cc1OC | -12 | . | . | -2 | . | i | -2 | .
CCCS(=O)(=O)NC(=O)C1(C)CCCN(C(=O)c2ccccc2)C1 (stereo not drawn) | . | 3 | 2 | . | 7 | . | . | -6
O=C(NCCCn1ccnc1)c1ccco1 | -6 | -8 | -1 | -4 | -82 | i | -5 | -14
Cc1ccnn1CC(=O)N/N=C/c1ccc([N+](=O)[O-])s1 | -1 | -3 | -11 | 29 | 1 | . | 40 | .
Cc1cc2ccccn2c1C(=O)c1nc(NCc2ccccc2)ncc1Cl | 17 | -3 | -11 | 8 | -2 | i | -4 | .
CC1CN(S(=O)(=O)c2cccc(C(=O)NNC(=O)C(C)Oc3ccccc3F)c2)CC(C)O1 (stereo not drawn) | -7 | 3 | 2 | . | 10 | i | . | -10
Cc1ccc(C(=O)CC2(O)C(=O)N(C)c3ccc(Br)cc32)c(C)c1 (stereo not drawn) | -6 | -5 | -1 | 7 | -4 | i | -1 | 5
COc1ccc(Cl)cc1NC(=O)C(C)N1CCc2ccccc21 (stereo not drawn) | -15 | -5 | 0 | 7 | 12 | . | -1 | .
C/C(CC(=O)Nc1cccnc1)=N/NC(=O)COc1ccc(Cl)cc1Br | -3 | 0 | 2 | 3 | -10 | i | 2 | .
Oc1ccc(CNC2CCCCC2)cc1 | -16 | 3 | 4 | -12 | . | i | 4 | -18
Cc1ccc(C)c(NC(=O)Cn2nnc(C(=O)NCc3ccco3)c2N)c1 | 2 | -8 | -12 | 11 | 2 | i | 5 | 4
O=C1C=CC[C@H](/C=C/C[C@@H](O)C[C@H](O)CCc2ccccc2)O1 | 6 | 3 | 3 | . | . | i | . | -16
CN(c1ccccc1C(=O)NC1CCCCC1)S(=O)(=O)c1ccccc1 | . | -1 | 2 | -10 | 17 | i | -6 | -5
Cc1[nH]c(C)c(S(=O)(=O)NCc2ccccc2Cl)c1C(=O)N1CCCC1 | 10 | 5 | 0 | 0 | 6 | i | 3 | -6
Cc1c(Cl)cccc1NC(=O)CCC(=O)N/N=C/c1ccco1 | -4 | -6 | -6 | 11 | -4 | i | -8 | -19
Cc1ccc(S(=O)(=O)N2CCCCC2)cc1C(=O)NC1CC(C)(C)NC(C)(C)C1 | -13 | 3 | 5 | . | . | i | . | -21
COc1ccc(Cc2nnc(SCC(=O)NC(C)c3ccccc3)o2)cc1 (stereo not drawn) | -3 | 0 | 0 | 7 | -18 | i | 7 | 0
